Mtb H37Rv = M. tuberculosis H37Rv growth inhibitors, H37Rv strain (AID 1626); M. tuberculosis H37Rv growth inhibition; higher % means a stronger effect; inhibition, % at 10 µM; hits with a dose series show IC50 in µM; hit rate 0.95% among 220,000;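 active means confirmed in a dose series; inconclusive means inhibition above 80% but not taken into the dose series; inactive means below 80% or under 30% at every dose of the series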;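 further: bacteria incubated seven days before Alamar blue readout; 0% = bacteria only wells and 100% = bacteria with antibiotic wells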
YopH PTP inh = blocks Yersinia enterocolitica YopH tyrosine phosphatase | fluorescence Ex485/Em525 | inhibition, %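 (about 10 µM by stock and volumes)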 | hit rate 0.16% among 140,000;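 active means inhibition of 50% or more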;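 further: controls were vehicle for no effect and minimum signal wells for full effect; inactives centre near -20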
RecA splice inh = blocks M. tuberculosis RecA intein splicing | P9WHJ3 | cell-free RecA intein splicing, fluorescence | inhibition, %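 (about 9 µM by stock and volumes)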 | hit rate 0.75% among 290,000 | AID 2221; in the data active means inhibition above about 30%; inconclusive means no clear call, values can overlap the other calls;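 further: 0% = vehicle wells and 100% = reference inhibitor control wells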
Target sequence (P9WHJ3 whole entry, looked up, canonical isoform): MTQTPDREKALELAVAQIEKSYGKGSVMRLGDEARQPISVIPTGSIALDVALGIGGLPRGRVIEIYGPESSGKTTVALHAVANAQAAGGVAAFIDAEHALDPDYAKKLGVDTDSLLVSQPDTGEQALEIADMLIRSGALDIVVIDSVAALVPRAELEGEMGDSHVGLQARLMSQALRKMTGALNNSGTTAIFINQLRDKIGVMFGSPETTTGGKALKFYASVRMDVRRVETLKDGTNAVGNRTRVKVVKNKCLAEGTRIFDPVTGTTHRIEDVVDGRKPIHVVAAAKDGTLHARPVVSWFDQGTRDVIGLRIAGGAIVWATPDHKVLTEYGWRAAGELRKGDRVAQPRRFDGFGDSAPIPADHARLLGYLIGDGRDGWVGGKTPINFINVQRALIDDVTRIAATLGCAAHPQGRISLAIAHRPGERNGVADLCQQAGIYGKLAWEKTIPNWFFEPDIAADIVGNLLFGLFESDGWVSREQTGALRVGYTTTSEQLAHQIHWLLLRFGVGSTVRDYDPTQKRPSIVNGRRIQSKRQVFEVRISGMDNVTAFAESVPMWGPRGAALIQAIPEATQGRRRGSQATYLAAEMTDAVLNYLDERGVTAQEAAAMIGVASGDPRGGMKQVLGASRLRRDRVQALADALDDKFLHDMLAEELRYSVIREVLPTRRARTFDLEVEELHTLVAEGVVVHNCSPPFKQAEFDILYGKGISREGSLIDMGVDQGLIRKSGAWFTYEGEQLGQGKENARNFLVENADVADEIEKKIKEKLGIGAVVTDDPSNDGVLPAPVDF
Mtb betalactam = beta-lactam sensitization of Mtb H37Rv; AID 434955; inhibition, % at 25 µM; M. tuberculosis H37Rv growth with meropenem, percent inhibition; hits of this screen are not shown here; hit rate 0.27% among 330,000;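 active means about 74% or more and at least 40 points above the plate without the antibiotic, then above 30% in a dose series; inconclusive means first-round hits that could not be retested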;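 further: growth measured after seven days incubation then overnight dye step; 0% = bacteria only wells and 100% = bacteria with antibiotic; twin plates without the antibiotic show which effects depend on it; some results filed as inactive read as strong as hits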
Arbovirus inh = antivirals against arbovirus infection; AID 1251; hit rate 0.37% among 200,000; inhibition, % at 10 µM; arbovirus infection cell-based antiviral screen;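 active means inhibition from about 30%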;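 further: bluetongue infection of BSR cells; cell survival read as ATP light after 72 h; 0% = infected wells without compound and 100% = uninfected wells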
Arbovirus inh repeat = recorded beside Arbovirus inh, whose call it bears; inhibition, %; measured here: 10K subset replicate screen; many hits read low in the repeat;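 first of two repeat runs on a subset; 0% = infected and 100% = uninfected wells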
The depositor's hits bear a star; ? = inconclusive; · = not tested or not shown. An excerpt; rates above refer to the full screens.

SMILES | Mtb H37Rv | YopH PTP inh | RecA splice inh | Mtb betalactam | Arbovirus inh | others
O=S1(=O)CC2(N3CCOCC3)CCCCCCC21 (stereo unspecified) | -10% | -40 | 0.2 | -3 | 4
COC1CCCN(C(=O)c2cccc(OC3CCN(S(C)(=O)=O)CC3)c2)C1 (stereo unspecified) | · | · | 0.2 | -1 | ·
O=C(CSc1ncnc2c1oc1ccccc12)Nc1ccccc1F | 5% | -16 | 0.5 | -2 | -4
Cc1cc(C)nc(SCC(=O)Nc2cccc(S(=O)(=O)N(C)C)c2)n1 | -3% | · | -0.3 | 3 | 6
Cc1snc(SCc2ccc(F)cc2)c1C#N | · | · | 0.5 | 4 | ·
COc1ccc(C2C(C(=O)c3ccccc3)=C(C)Nc3nc4ccccc4n32)cc1OC (stereo unspecified) | · | -40 | -5.6 | 1 | -6
Cc1cc(Br)ccc1S(=O)(=O)n1ccnc1C | -8% | · | 0.2 | -3 | 7
Cc1ccc(C(=O)CCS(=O)(=O)c2ccc(F)cc2)cc1 | · | · | 3.3 | 60 | ·
COc1ccc(NS(=O)(=O)c2cc(NC(=O)c3cnc(C)cn3)ccc2N2CCCC2)cc1 | 2% | -7 | 0.8 | -7 | -25
COCCNc1ccc(S(=O)(=O)N2CCCC2)cn1 | 5% | · | 3.0 | -9 | 4
CCOC(=O)N1C=CC=C[C@@H]2[C@@H](N3C(=O)c4ccccc4C3=O)C(=O)N21 | -6% | -7 | -1.4 | 0 | -3
CCCCC(=O)Nc1nnc(SCC(=O)NC2CC2)s1 | · | · | -0.6 | 7 | ·
CC1(C)OC2OC(COC(=O)c3ccc([N+](=O)[O-])cc3)C3OC(C)(C)OC3C2O1 (stereo unspecified) | 64% | -13 | 0.9 | 16 | -11
O=C(NCCCn1ccnc1)C(=O)NCC1OCCN1S(=O)(=O)c1ccc(Br)cc1 (stereo unspecified) | · | · | · | 2 | -4
O=C(CN1C(=O)/C(=C\c2cccc(Br)c2)Oc2ccccc21)NCCCN1CCOCC1 | · | · | -7.3 | 83 | ·
O=C(O)c1cc2nc(-c3ccccc3)cc(C(F)(F)F)n2n1 | -12% | -31 | -0.1 | -8 | -4
N#Cc1cc(-c2ccccc2)nnc1Sc1ccc(Cl)cc1 | 7% | -38 | 2.7 | 3 | -7
Cc1ccc(OCc2ccc(C(=O)Nc3nc4ccccc4n3C)o2)c([N+](=O)[O-])c1 | 10% | -21 | 4.0 | 2 | -18
Cc1ccc(/C=N/NC(=S)NC2CCCCC2)o1 | 40% | · | 0.6 | 94 | ·
CCC(NC(=S)NCc1ccc(F)cc1)c1ccccc1 (stereo unspecified) | · | · | 3.2 | -12 | ·
N#C/C(=C(/O)c1ccc(F)cc1)c1nc2ccccc2s1 | -6% | · | 0.6 | 1 | 12
CC(C)(C)C(=O)c1sc2nc(-c3cccs3)cc(C(F)(F)F)c2c1N | -1% | -46 | -1.4 | -11 | 3
COc1cccc(C(=O)N2CCN(CCCc3ccccc3)CC2)c1OC | -6% | -14 | · | -1 | 1
CC(C(=O)NCc1ccco1)n1ccc2cc(S(=O)(=O)N3CCCCC3)ccc21 (stereo unspecified) | · | · | 2.0 | -5 | ·
CC(=O)OCCSc1c(-c2ccccc2)c2cc(Cl)ccc2[nH]c1=O | 3% | -14 | 6.7 | 0 | 5
CC1CCCN(C(=O)C(C)Nc2cc(Cl)ccc2N2CCOCC2)C1 (stereo unspecified) | -1% | · | 9.9 | -4 | -20
CCOc1ccc2c(c1)c(N=NC(=N)N)c(O)n2C | -5% | 1 | 3.3 | 3 | -12
Cn1cccc1/C=C(/C#N)c1ccc(F)cc1 | 11% | · | 3.0 | 2 | 0
N#Cc1c(-n2ccnc2)cccc1-n1ccnc1 | -7% | -39 | -0.9 | -1 | -1
CCOC(=O)C(Cc1ccccc1)C(=O)Nc1ccc(NC(=O)C(Cc2ccccc2)C(=O)OCC)cc1 (stereo unspecified) | 3% | -27 | 1.1 | 4 | -12
COC(=O)c1ccc(NC(=O)Cn2nc(SC)n(N)c2=S)cc1 | -10% | -24 | -4.0 | 0 | -1 | Arbovirus inh repeat=-2
Cc1sc2ncnc(N(C)Cc3ccco3)c2c1C | -3% | -10 | · | 10 | 3
COCCOC(=O)c1c(C)oc2ccc(NS(=O)(=O)c3ccc(C)cc3)cc12 | 8% | · | 1.2 | -3 | ·
CCN(CC)C(=O)CCn1nc(-c2ccc(C)cc2)c2ccccc2c1=O | · | · | -1.3 | 13 | ·
COC(=O)c1cc(S(=O)(=O)N2CCN(c3ccc(C(C)=O)cc3)CC2)cn1C | · | · | 3.5 | 6 | ·
CCN1C[C@]2(COC)CC[C@H](O)[C@@]34C5C[C@H]6[C@H](O)C5[C@](O)(C[C@H]6OC)[C@@H]([C@H](OC)C23)[C@@H]14 (stereo partly specified) | -11% | · | -1.4 | -6 | ·
Cc1ccc2c(c1)nnn2C1CCN(C(=O)c2cccs2)CC1 | -10% | -38 | 1.5 | 7 | 6
NC(=O)c1ccc(Cc2ncc(C(F)(F)F)cc2Cl)s1 | -8% | -32 | 0.0 | 5 | 3
Cc1ccc(C2CC(=O)Nc3cc4c(cc32)OCO4)o1 (stereo unspecified) | -3% | -8 | · | -3 | -3
CC(C(=O)Nc1ccc2c(c1)OCO2)N1CCN(C)CC1 (stereo unspecified) | -4% | · | -2.9 | -4 | ·
CCOC(=O)COc1ccc(C(=O)NC2CCCCC2)cc1 | ? | -4 | 0.1 | 99 | -8
O=C(COc1ccc2ccccc2c1Br)NNC(=O)Nc1ccccc1 | 3% | -5 | 1.5 | -2 | -10
NS(=O)(=O)c1ccc(CCNC(=O)CCCn2ncn3c(cc4occc43)c2=O)cc1 | · | · | -0.7 | 4 | ·
CSc1ccc(CNC(C)C(O)c2ccccc2)cc1 (stereo unspecified) | -1% | · | 0.4 | -13 | -1
COc1ccc(CNC(=O)C2CCN(S(=O)(=O)c3cccnc3)CC2)cc1 | · | · | -1.5 | 22 | ·
O=C1NC2(CCCC2)N=C1c1ccc(Cl)cc1 | -7% | -8 | 4.8 | -8 | -2
CC(C)N1CCN(Cc2ccc(Sc3nncn3C)o2)CC1CCO (stereo unspecified) | -3% | · | -2.4 | 2 | ·
O=c1c2ccccc2cnn1CCOc1cccc(Br)c1 | · | · | 1.8 | -7 | ·
Nc1nnc(SCC(=O)OCc2ccccc2)s1 | -6% | -8 | -0.4 | 6 | -4
O=C1CS/C(=N/N=C/c2ccncc2)N1 | -6% | · | 0.4 | -2 | ·
COc1cc2c(cc1OC)CN(C(C)C(=O)Nc1ccc(NC(C)=O)cc1)CC2 (stereo unspecified) | 3% | -13 | 0.5 | -12 | -2
COC(=O)c1sc(C(=O)OC)c(C(=O)OC)c1C(=O)OC | -4% | -13 | -1.0 | 4 | -4
COCCOc1cc(-n2cccc2)c(Cl)cc1Cl | -3% | · | · | -3 | 1
CCOC(=O)c1sc(=S)n(C)c1NC(=O)c1ccccc1Cl | 0% | -9 | -1.9 | -2 | 6
CS(=O)(=O)N1CCN(C(=O)c2ccc(Cl)s2)CC1 | 0% | · | -2.5 | -1 | 0
CCSc1nsc(NC(=O)Nc2cccc(F)c2)n1 | · | · | 9.3 | 82 | ·
Cc1cc(Cl)c(S(=O)(=O)NCCC(=O)O)cc1OCC(N)=O | -5% | -22 | 1.3 | 7 | 4
Cc1ccc(CN2CC(C(=O)Nc3ccc(S(=O)(=O)Nc4cc(C)nc(C)n4)cc3)CC2=O)cc1 (stereo unspecified) | 0% | -1 | 0.9 | -12 | 14
COCCN(C(=O)CSc1nnc(-c2ccccc2F)n1C)c1c(N)n(Cc2ccccc2)c(=O)[nH]c1=O | -2% | · | 2.2 | -3 | 6
Cc1ccc2c(c1)n([O-])c1c([n+]2=O)CCCC1 | 4% | -22 | -2.1 | -10 | 4

The listing continues:
SMILES | Mtb H37Rv | YopH PTP inh | RecA splice inh | Mtb betalactam | Arbovirus inh | others
COc1cc2c(C(=O)Nc3ccccc3F)cn(C)c(=O)c2cc1OC | · | · | 4.6 | 3 | ·
CCc1ccc(C2=NN(C(=O)OC)C(O)(C(F)(F)F)C2)cc1 (stereo unspecified) | -6% | -20 | 0.2 | 13 | 17
Cc1cc(=O)[nH]c(SCc2cn3ccccc3n2)n1 | 1% | · | -0.8 | -4 | 6
O=C(COC(=O)Cn1cnc2ccccc2c1=O)Nc1ccccc1Sc1ccc(Cl)cc1 | 14% | -19 | -0.1 | 5 | 4
CS(=O)(=O)N1CC(C(=O)NC2CC2)Oc2ccc(Cl)cc21 (stereo unspecified) | -8% | -30 | 0.4 | -7 | 3
Cc1ccc(Sc2nc3ccc(C)cn3c(=O)c2/C=N/O)cc1 | -1% | · | -4.5 | 71 | -14
COc1cc(NC(=S)N2CCN(S(=O)(=O)c3ccc(F)cc3)CC2)cc(OC)c1 | · | · | -0.3 | 3 | ·
CCCCNC(=O)c1ccccc1NS(=O)(=O)c1ccc2c(c1)OCCO2 | 1% | -23 | · | -3 | 3
CCc1n[nH]c(=S)n1/N=C/c1ccccc1OCc1ccc(Cl)cc1 | 7% | · | -1.6 | 7 | -2
CN(C)CCCN(C(=O)c1ccc(S(=O)(=O)N2CCCC2)cc1)c1nc2c(F)cc(F)cc2s1 | · | · | -0.1 | -5 | ·
CCS(=O)(=O)N1CCC(C(=O)NC2CCCCC2)CC1 | -1% | -25 | · | 3 | 6
CC(=O)c1cc(C)ccc1OC(=O)CN1C(=O)c2ccccc2C1=O | · | · | 1.8 | -5 | ·
CCN1C[C@]2(OC(=O)c3ccccc3NC(C)=O)CCC(OC)C34C5C[C@H]6C(OC)[C@]5(O)[C@](O)(C[C@@H]6OC)C(C[C@@H]32)[C@H]14 (stereo partly specified) | · | · | -0.6 | -1 | ·
CC(C)c1ccccc1OCC(=O)NC1CCCc2ccccc21 (stereo unspecified) | 14% | -15 | 24 | -1 | 13
Cc1cc(=O)[nH]c(SCc2csc(-c3ccccc3)n2)n1 | -6% | -8 | 0.8 | 0 | 3
Cc1c2cnn(CC(=O)Nc3c(F)c(F)cc(F)c3F)c(=O)c2c(C)n1Cc1ccc(F)cc1 | -2% | · | 0.6 | -3 | -2
CCOC(=O)N1CCC(NC(=O)CC2C(=O)NCCN2Cc2ccccc2F)CC1 (stereo unspecified) | · | · | 2.0 | -2 | ·
C=CCc1cccc(CNc2nc3ccccc3n2CC)c1O | 4% | -7 | 1.6 | -3 | -27
Cc1ccnc(N/C=C(/NC(=O)c2ccccc2)C(=O)NN)n1 | 3% | · | 0.4 | -3 | -3
Cc1ccccc1CN1CCN(Cc2cc(=O)c3ccccc3[nH]2)CC1CCO (stereo unspecified) | · | · | -1.5 | -4 | ·

Of the compounds above, these have a CF3 group:
SMILES | Mtb H37Rv | YopH PTP inh | RecA splice inh | Mtb betalactam | Arbovirus inh | others
O=C(O)c1cc2nc(-c3ccccc3)cc(C(F)(F)F)n2n1 | -12% | -31 | -0.1 | -8 | -4
CC(C)(C)C(=O)c1sc2nc(-c3cccs3)cc(C(F)(F)F)c2c1N | -1% | -46 | -1.4 | -11 | 3
NC(=O)c1ccc(Cc2ncc(C(F)(F)F)cc2Cl)s1 | -8% | -32 | 0.0 | 5 | 3
CCc1ccc(C2=NN(C(=O)OC)C(O)(C(F)(F)F)C2)cc1 (stereo unspecified) | -6% | -20 | 0.2 | 13 | 17

The main list resumes; the 2 compounds before the break are reprinted first.
SMILES | Mtb H37Rv | YopH PTP inh | RecA splice inh | Mtb betalactam | Arbovirus inh | others
Cc1ccnc(N/C=C(/NC(=O)c2ccccc2)C(=O)NN)n1 | 3% | · | 0.4 | -3 | -3
Cc1ccccc1CN1CCN(Cc2cc(=O)c3ccccc3[nH]2)CC1CCO (stereo unspecified) | · | · | -1.5 | -4 | ·
O=C(O)c1ccc(N2CCN(Cc3ccc4c(c3)OCO4)CC2)c([N+](=O)[O-])c1 | · | · | -0.1 | -3 | ·
COc1ccccc1-n1c(SCC(=O)NCC2CCCO2)nc2c([nH]c3ccccc32)c1=O (stereo unspecified) | · | · | 6.0 | ? | ·
C=CCn1cnc2c(c1=O)c1nc3ccccc3nc1n2/N=C/c1cc(OC)c(OC)c(OC)c1 | -1% | -17 | -8.9 | -15 | -35
O=c1[nH]c(=S)n(C2CC2)c(O)c1C=NCCc1ccccc1 | -8% | · | -2.2 | -3 | ·
Cc1ccccc1N(C(=O)CNC(=O)c1ccco1)C(C(=O)NC1CCCCC1)c1cccnc1 (stereo unspecified) | · | · | -2.5 | -2 | ·
C/C(=C\C(=O)c1ccc(Br)cc1)NNC(=O)c1ccccc1 | · | · | 7.3 | 1 | ·
Cc1cc(Br)ccc1NC(=O)CSc1nnc(CN2CCOCC2)n1C | · | · | -1.8 | -3 | ·
CCc1nnc(NC(=O)CSc2nc(-c3ccccc3)nc3ccccc23)s1 | 3% | -18 | -0.7 | 9 | -7
Cc1cccc(NC(=S)NC(C)(C)CC(C)(C)C)c1 | 10% | · | 2.0 | 2 | -5

Compound activity as filed in PubChem BioAssay.
